KCNQ2 pot: potentiators of rat KCNQ2 potassium channel. B-score at 10 µM. AID 2239. 0.54% of 310,000 active. CHO-K1 KCNQ2, FluxOR thallium flux fluorescence; active compounds read high;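 active means fluorescence ratio B-score at least 3 SD of library B-scores, with initial fluorescence B-score within 3 SD, cut at about 5.3 in these data; same plate scores as AID 2156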;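 further: B-score of peak minus minimum over baseline fluorescence ratio after K+ and Tl+ stimulus; positive B-score means potentiation of KCNQ2 with more thallium influx and brighter signal; only the inactives scoring about 0 or higher are listed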
Target sequence (O88943 whole entry, looked up): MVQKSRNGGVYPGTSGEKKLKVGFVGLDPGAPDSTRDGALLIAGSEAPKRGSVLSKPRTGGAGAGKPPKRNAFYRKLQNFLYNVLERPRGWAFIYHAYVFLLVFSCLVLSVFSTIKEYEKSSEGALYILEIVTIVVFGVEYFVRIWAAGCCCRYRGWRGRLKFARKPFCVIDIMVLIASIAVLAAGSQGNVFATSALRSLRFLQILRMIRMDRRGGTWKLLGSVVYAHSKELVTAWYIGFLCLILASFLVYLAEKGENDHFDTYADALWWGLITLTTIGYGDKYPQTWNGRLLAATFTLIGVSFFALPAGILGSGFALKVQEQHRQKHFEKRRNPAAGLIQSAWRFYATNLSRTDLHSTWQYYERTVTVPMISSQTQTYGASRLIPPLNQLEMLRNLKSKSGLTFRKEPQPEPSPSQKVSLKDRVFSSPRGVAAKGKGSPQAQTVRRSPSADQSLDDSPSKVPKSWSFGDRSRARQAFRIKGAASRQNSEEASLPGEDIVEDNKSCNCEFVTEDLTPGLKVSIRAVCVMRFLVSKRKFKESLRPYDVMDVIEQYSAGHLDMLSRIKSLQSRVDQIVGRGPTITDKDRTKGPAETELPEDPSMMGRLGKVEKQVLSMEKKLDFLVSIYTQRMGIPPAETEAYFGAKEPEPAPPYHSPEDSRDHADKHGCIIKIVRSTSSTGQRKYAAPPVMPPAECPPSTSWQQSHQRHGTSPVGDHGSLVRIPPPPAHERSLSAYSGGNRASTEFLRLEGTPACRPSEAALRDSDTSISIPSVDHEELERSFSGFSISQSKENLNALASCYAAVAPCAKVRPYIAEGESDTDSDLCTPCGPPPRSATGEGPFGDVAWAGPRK
KCNQ2 pot baseline: second read-out of KCNQ2 pot, no call of its own (marks repeat the call); B-score; compound at 10 µM; measured here: initial fluorescence intensity artifact check;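 brightness before thallium and not channel activity; 0 = typical well and far values either way flag optical interference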
* marks the source's active call; other numbers are inactive results. These rows are one share of the data; count on the stated rates, not on these rows.

Screening O=C(Cn1cccc1C(=O)c1ccccc1)NCc1ccccn1 returned KCNQ2 pot 0.09 and KCNQ2 pot baseline 1.5.
CCOC(=O)c1c(NC(=O)C[n+]2ccccc2)sc2c1CCCC2 was read as KCNQ2 pot 0.12 and KCNQ2 pot baseline 1.4.
Screening Cc1ccc2nc(SCC(=O)Nc3ccc(Br)cc3)nc(=O)n2c1 returned KCNQ2 pot 0.02 and KCNQ2 pot baseline 0.72.
CCOC(=O)c1c(NC(=O)COC(=O)c2nccnc2N)sc(C(=O)N(C)C)c1C was read as KCNQ2 pot 1.3 and KCNQ2 pot baseline -1.8.
For COc1cc2c(cc1OC)C(C)N(C(=O)c1cc3c(=O)oc4ccc(C)cc4c3s1)CC2 (centres undefined) the results were KCNQ2 pot 0.23 and KCNQ2 pot baseline -0.18.
`Cc1ccc(-c2csc(NC(=O)C3=NN(c4ccccc4)C(=O)CC3)n2)cc1` gave KCNQ2 pot 0.14 and KCNQ2 pot baseline 1.6.
COc1ccc(N2CC(C(=O)N3CCCC(C)C3)CC2=O)cc1 (centres undefined) was read as KCNQ2 pot 0.14 and KCNQ2 pot baseline -0.67.
Screening CCn1cc(C(=O)N[C@@H](CCSC)C(=O)NCCO)c(=O)c2cc3c(cc21)OCO3 returned KCNQ2 pot 0.31 and KCNQ2 pot baseline -1.3.
Screening CC(=O)N1CCN(C(=S)Nc2cc(S(=O)(=O)N3CCOCC3)ccc2Cl)CC1 returned KCNQ2 pot 0.39 and KCNQ2 pot baseline -3.1.
Screening CCOc1cc(S(=O)(=O)N2CCCCCC2)ccc1F returned KCNQ2 pot 1.5 and KCNQ2 pot baseline -0.64.
For COc1cccc(CN2CCN(Cc3cc4ccccc4o3)CC2CCO)c1 (centres undefined) the results were KCNQ2 pot 0.15 and KCNQ2 pot baseline -0.17.
`CCc1ccccc1N(CC(=O)NC(C)c1ccccc1)S(C)(=O)=O` (centres undefined) gave KCNQ2 pot 0.87 and KCNQ2 pot baseline -1.1.
For O=C(Cn1nnc(N2CCCCC2)n1)c1ccc(Cl)c(Cl)c1 the results were KCNQ2 pot 0.9 and KCNQ2 pot baseline 0.91.
`COC(=O)CN(C)C(=O)c1ccc(OC)c(OC2CCN(C(C)C)CC2)c1` gave KCNQ2 pot 0.34 and KCNQ2 pot baseline 1.3.
Screening O=C(c1ccsc1)N1CCCC(N2CCOCC2)C1 (centres undefined) returned KCNQ2 pot 0.67 and KCNQ2 pot baseline 0.66.
For CCN(CC)S(=O)(=O)c1cc(C(=O)NC2=NCCS2)ccc1Cl the results were KCNQ2 pot 0.29 and KCNQ2 pot baseline 0.72.
`c1ccc(-c2nnc3n2NC(c2ccc4c(c2)OCO4)S3)cc1` (centres undefined) gave KCNQ2 pot 1 and KCNQ2 pot baseline -3.4.
Screening S=c1nc(-c2ccccc2)oc2c1CCCC2 returned KCNQ2 pot 0.33 and KCNQ2 pot baseline -0.41.
`N/C(=N\OC(=O)c1ccc(Cl)c(Cl)c1)c1cccnc1` gave KCNQ2 pot 0.63 and KCNQ2 pot baseline -0.4.
Screening COc1cc2c(cc1OC)[C@H](C)N(C(=O)CSc1nc(O)c(C(C)C)c(=O)[nH]1)CC2 returned KCNQ2 pot 0.41 and KCNQ2 pot baseline 2.6.
Screening O=C(O)C/C(=C\c1cc(Br)cs1)c1nc2ccccc2o1 returned KCNQ2 pot 0.13 and KCNQ2 pot baseline -1.2.
Screening CC(C)(C)N1NC(=O)Nc2ccccc2C1=O returned KCNQ2 pot 0.23 and KCNQ2 pot baseline -1.6.
Screening Cc1noc(C)c1CSc1ncnc2sc3c(c12)CCCCC3 returned KCNQ2 pot 5.5* and KCNQ2 pot baseline 1.6*.
For CCn1c(=S)[nH]c2nc3c(cc2c1=O)CCCC3 the results were KCNQ2 pot 1.2 and KCNQ2 pot baseline -0.92.
For CCCCn1c(N)c(N(CC)C(=O)CSc2nnc(-c3ccco3)n2CC)c(=O)[nH]c1=O the results were KCNQ2 pot 0.14 and KCNQ2 pot baseline -0.01.
For Cc1ccc(-n2nc(C)c(/C=N/NC(=O)c3cccnc3)c2Cl)cc1 the results were KCNQ2 pot 3.1 and KCNQ2 pot baseline -1.1.
O=C(Nc1nccs1)c1cc(S(=O)(=O)N2CCCCC2)ccc1Cl was read as KCNQ2 pot 0.54 and KCNQ2 pot baseline 0.
Screening CCC(C)NC(=O)c1cc(-c2ccccc2O)on1 (centres undefined) returned KCNQ2 pot 0.08 and KCNQ2 pot baseline 0.79.
`CN(c1cccc(NS(=O)(=O)c2cccc([N+](=O)[O-])c2)c1)S(C)(=O)=O` gave KCNQ2 pot 1.9 and KCNQ2 pot baseline -0.13.
Screening O=c1sc2ccccc2c(N2CCOCC2)c1[N+](=O)[O-] returned KCNQ2 pot 0.52 and KCNQ2 pot baseline -0.02.
`Cc1cc(Oc2ccccc2)nc(SCC(N)=O)n1` gave KCNQ2 pot 0.83 and KCNQ2 pot baseline -1.4.
For COc1cccc(OCCNC(=O)c2cc([N+](=O)[O-])cc([N+](=O)[O-])c2)c1 the results were KCNQ2 pot 0.73 and KCNQ2 pot baseline -0.67.
Screening CCOC(=O)N1CC=C2C(C#N)=C(N)C(C#N)(C#N)[C@H](c3ccc(OCC)c(OCC)c3)[C@H]2C1 returned KCNQ2 pot 0.74 and KCNQ2 pot baseline -0.32.
For Cc1cccc(NC(=O)c2ccc(Cl)nc2)n1 the results were KCNQ2 pot 0.97 and KCNQ2 pot baseline 0.68.
`O=C(C1=NNCC1c1ccccc1)C1CO1` (centres undefined) gave KCNQ2 pot 0.32 and KCNQ2 pot baseline -0.7.
Cc1nccn1CCCNC(=O)CC1C(=O)NCCN1Cc1ccc(F)cc1Cl (centres undefined) was read as KCNQ2 pot 1 and KCNQ2 pot baseline 2.8.
For CC(C)NC(=O)NC(=O)CSc1nnc(C(F)(F)F)n1C the results were KCNQ2 pot 0.65 and KCNQ2 pot baseline -0.34.
Screening N#Cc1cc([N+](=O)[O-])cnc1NCC(O)CO (centres undefined) returned KCNQ2 pot 1.2 and KCNQ2 pot baseline 0.09.
CC1=C(C(=O)OCC2CCCO2)C(c2ccccc2Cl)NC(=O)N1 (centres undefined) was read as KCNQ2 pot 1.2 and KCNQ2 pot baseline -1.9.
COc1ccc(N(CC(=O)NCc2ccccc2)C(=O)CCC(=O)Nc2cc(C)ccn2)c(OC)c1 was read as KCNQ2 pot 0.48 and KCNQ2 pot baseline -0.06.
`COC(C[C@@H](O)CC(=O)COCc1ccccc1)OC` gave KCNQ2 pot 1.8 and KCNQ2 pot baseline -0.17.
Screening CC(C)CCN1CC(C(=O)NC(C)C)CC1=O (centres undefined) returned KCNQ2 pot 0.03 and KCNQ2 pot baseline -0.35.
`CCCS(=O)(=O)N1CCCC(C(=O)NCc2ccco2)C1` (centres undefined) gave KCNQ2 pot 0.25 and KCNQ2 pot baseline -1.8.
O=C(NC1CCCC1)c1ccc2c(c1)N(Cc1ccccc1)CCS2 was read as KCNQ2 pot 0.98 and KCNQ2 pot baseline 1.4.
Screening Cn1c(SCC(=O)c2ccc(F)cc2)nnc1-c1ccccc1N returned KCNQ2 pot 0.32 and KCNQ2 pot baseline -0.02.
For CCOCCCNC(=O)C1CCN(c2cc(C)nc3c(-c4ccc(OC)c(OC)c4)c(C)nn23)CC1 the results were KCNQ2 pot 2.1 and KCNQ2 pot baseline -0.03.
For CCOc1ccccc1N1CCN(C(=O)CCNS(=O)(=O)c2ccccc2F)CC1 the results were KCNQ2 pot 1.6 and KCNQ2 pot baseline -0.14.
O=C1CC(N2CCN(C3CC(=O)N(CCc4ccccc4)C3=O)CC2)C(=O)N1CCc1ccccc1 (centres undefined) was read as KCNQ2 pot 0.42 and KCNQ2 pot baseline 0.61.
`CCCS(=O)(=O)N1CCCC(C(=O)N2CCOCC2)C1` (centres undefined) gave KCNQ2 pot 2.1 and KCNQ2 pot baseline -1.3.
CC(=O)c1c(N)[nH]c(-c2ccccc2)nc1=S was read as KCNQ2 pot 1.6 and KCNQ2 pot baseline -0.35.

Sorted by SMILES length (rising): eleven of the compounds above
For Cc1cccc(NC(=O)c2ccc(Cl)nc2)n1 the results were KCNQ2 pot 0.97 and KCNQ2 pot baseline 0.68.
Screening O=C(c1ccsc1)N1CCCC(N2CCOCC2)C1 (centres undefined) returned KCNQ2 pot 0.67 and KCNQ2 pot baseline 0.66.
Screening CCOc1cc(S(=O)(=O)N2CCCCCC2)ccc1F returned KCNQ2 pot 1.5 and KCNQ2 pot baseline -0.64.
`COC(C[C@@H](O)CC(=O)COCc1ccccc1)OC` gave KCNQ2 pot 1.8 and KCNQ2 pot baseline -0.17.
Screening Cc1noc(C)c1CSc1ncnc2sc3c(c12)CCCCC3 returned KCNQ2 pot 5.5* and KCNQ2 pot baseline 1.6*.
Screening Cn1c(SCC(=O)c2ccc(F)cc2)nnc1-c1ccccc1N returned KCNQ2 pot 0.32 and KCNQ2 pot baseline -0.02.
COc1ccc(N2CC(C(=O)N3CCCC(C)C3)CC2=O)cc1 (centres undefined) was read as KCNQ2 pot 0.14 and KCNQ2 pot baseline -0.67.
O=C(NC1CCCC1)c1ccc2c(c1)N(Cc1ccccc1)CCS2 was read as KCNQ2 pot 0.98 and KCNQ2 pot baseline 1.4.
O=C(Nc1nccs1)c1cc(S(=O)(=O)N2CCCCC2)ccc1Cl was read as KCNQ2 pot 0.54 and KCNQ2 pot baseline 0.
For CCCCn1c(N)c(N(CC)C(=O)CSc2nnc(-c3ccco3)n2CC)c(=O)[nH]c1=O the results were KCNQ2 pot 0.14 and KCNQ2 pot baseline -0.01.
For CCOCCCNC(=O)C1CCN(c2cc(C)nc3c(-c4ccc(OC)c(OC)c4)c(C)nn23)CC1 the results were KCNQ2 pot 2.1 and KCNQ2 pot baseline -0.03.

Additional structures follow.
`O=c1ccc(Oc2nc(N3CCOCC3)nc(N3CCOCC3)n2)n[nH]1` gave KCNQ2 pot 0.15 and KCNQ2 pot baseline 1.8.
CCOc1ccc2[nH]c(S(=O)(=O)CC)nc2c1Cl was read as KCNQ2 pot 0.05 and KCNQ2 pot baseline 0.32.
For COC(=O)c1sc(NC(=O)CSc2nnnn2-c2cccc(OC)c2)nc1C the results were KCNQ2 pot 1.3 and KCNQ2 pot baseline -1.5.
COC(=O)CCC(=O)OC1(C)C(=O)C=C2C=C3CCCN3C=C2C1=O (centres undefined) was read as KCNQ2 pot 0.98 and KCNQ2 pot baseline 0.23.
Nc1ncnc2c1ncn2C1OC(COP(=O)(O)O)C(O)C1O (centres undefined) was read as KCNQ2 pot 0.02 and KCNQ2 pot baseline 0.04.
For CN(CCCNC(=O)CSc1cc(=O)n(C)c2ccc(Cl)cc12)Cc1ccccc1 the results were KCNQ2 pot 0.08 and KCNQ2 pot baseline 0.01.
O=C(O)c1cc(-c2cccnc2)nn1-c1ccccn1 was read as KCNQ2 pot 0.74 and KCNQ2 pot baseline -0.01.
Screening CC(C)OCCCNC(=S)N1CCC(C(=O)c2ccc(Cl)cc2)CC1 returned KCNQ2 pot 0.25 and KCNQ2 pot baseline 0.88.
Screening CC(=O)Nc1nc2cccc([N+](=O)[O-])c2s1 returned KCNQ2 pot 2 and KCNQ2 pot baseline -0.95.
COc1ccc(S(=O)(=O)Nc2cccc(S(=O)(=O)N3CCCCCC3)c2)cc1 was read as KCNQ2 pot 0.6 and KCNQ2 pot baseline 0.01.
`O=C(NNc1ccc([N+](=O)[O-])cc1)C1CC1c1ccccc1` (centres undefined) gave KCNQ2 pot 6.3* and KCNQ2 pot baseline -0.01*.
`CCc1ccc(N2CC(C(=O)NC3=NCCS3)CC2=O)cc1` (centres undefined) gave KCNQ2 pot 0.67 and KCNQ2 pot baseline 1.3.
Screening Cc1nc2cc(NC(=O)CCS(=O)(=O)c3ccccc3)ccc2s1 returned KCNQ2 pot 0.03 and KCNQ2 pot baseline -0.29.
`COc1ccccc1NS(=O)(=O)c1cc2c(cc1C)NC(=O)CO2` gave KCNQ2 pot 1.1 and KCNQ2 pot baseline -0.57.
CC(CNC(=O)C1CCCN(S(=O)(=O)N2CCOCC2)C1)c1ccccc1 (centres undefined) was read as KCNQ2 pot 0.98 and KCNQ2 pot baseline 1.
For CCOC(=O)c1sc(NC(=O)CSc2nnnn2-c2ccc(C)c(C)c2)nc1C the results were KCNQ2 pot 1.6 and KCNQ2 pot baseline -0.01.
COc1ccc(NC(=O)N2CCn3c2nc2ccccc23)cc1 was read as KCNQ2 pot 0.4 and KCNQ2 pot baseline -1.4.
Cn1c(=O)[nH]c(=O)c2c1nc(N1CCCC1)n2CC(O)COc1ccccc1 (centres undefined) was read as KCNQ2 pot 0.63 and KCNQ2 pot baseline 0.48.
Screening COC(=O)c1ccc(NC(=O)CN(c2ccc(C)cc2)S(=O)(=O)c2c(C)n[nH]c2C)cc1 returned KCNQ2 pot 0.16 and KCNQ2 pot baseline -0.82.
Screening O=C1NC[C@H](c2ccccc2)N(CCc2cccc3ccccc23)C1=O returned KCNQ2 pot 0.25 and KCNQ2 pot baseline 2.3.
`Cc1nc2ccc(S(=O)(=O)NCC(=O)N(C)Cc3ccccc3)cc2s1` gave KCNQ2 pot 1.2 and KCNQ2 pot baseline -0.11.
COc1cc2nc(N(C)CCCNC(=O)C3CCCO3)nc(N)c2cc1OC (centres undefined) was read as KCNQ2 pot 0.46 and KCNQ2 pot baseline 0.
For O=C(COC(=O)c1ccc(O)cc1)Nc1nccs1 the results were KCNQ2 pot 0.28 and KCNQ2 pot baseline -1.3.
For Cc1c(NC(=O)C(C)OC(=O)COc2ccc(C#N)cc2)c(=O)n(-c2ccccc2)n1C (centres undefined) the results were KCNQ2 pot 0.2 and KCNQ2 pot baseline -0.07.
Screening CCN(CC)CCn1c2ccc(F)cc2c2nc(C)sc21 returned KCNQ2 pot 0.79 and KCNQ2 pot baseline -1.2.
CC(C)CN(C(=O)COC(=O)CCCc1nc2ccccc2s1)c1c(N)n(Cc2ccccc2)c(=O)[nH]c1=O was read as KCNQ2 pot 0.42 and KCNQ2 pot baseline 1.6.

Screens as filed in PubChem BioAssay.
